VDR inh: vitamin D3 receptor (human) inhibition. P11473. VDR-SRC2-3 peptide fluorescence polarization, 2 h. 400,000 tested, 0.93% active. AID 504847. Potency, µM, for the others: max response, negative = inhibition, actives largely listed as inhibitors; active means well fitted inhibition curve with a large enough effect; inconclusive means small, poorly fitted or top-dose-only effect, or another doubt; inactive means no such curve, though single readings can be large or run the other way; further: series mostly up to about 120 µM
Target sequence (P11473 whole entry, looked up): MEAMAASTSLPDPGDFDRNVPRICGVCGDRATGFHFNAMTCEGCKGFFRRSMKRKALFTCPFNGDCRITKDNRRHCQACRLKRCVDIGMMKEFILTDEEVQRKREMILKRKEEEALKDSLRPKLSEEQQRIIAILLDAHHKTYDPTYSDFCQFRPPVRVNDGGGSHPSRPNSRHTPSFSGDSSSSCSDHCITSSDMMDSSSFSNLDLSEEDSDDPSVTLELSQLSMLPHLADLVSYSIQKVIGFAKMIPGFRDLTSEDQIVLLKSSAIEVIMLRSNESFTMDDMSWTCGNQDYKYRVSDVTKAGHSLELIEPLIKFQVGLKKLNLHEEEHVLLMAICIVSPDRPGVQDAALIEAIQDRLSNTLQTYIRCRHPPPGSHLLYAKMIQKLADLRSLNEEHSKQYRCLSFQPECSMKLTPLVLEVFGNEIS
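Measured by FP: displacement of SRC2-3 coactivator peptide from VDR by library compounds, following a two-hour ambient incubation.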
Active calls of the source: *; ? = inconclusive; [ ] = remark or other dose. On the % scale 0 is the no-effect control and ±100 the full control effect; potency means the concentration at half of the fitted maximal effect. The list is partial (hit frequency here may not be typical).

SMILES	VDR inh
COc1ccc(CNC(=O)C2CCCCN2S(=O)(=O)c2ccc(F)cc2)cc1 (stereo not drawn)	-6%
Cc1ccccc1C(C(=O)NCc1ccco1)N(CC1CCCO1)C(=O)Cn1nnc2ccccc21 (stereo not drawn)	-1%
Cc1cnc(C(=O)N2CCCC(N3CCN(c4cccc(C(F)(F)F)c4)CC3)C2)cn1 (stereo not drawn)	19%
Cc1nc(=O)c(-c2ccccc2)c(C)n1CCCCCC(=O)O	-6%
O=[N+]([O-])c1ccc(NC(=S)N2CCN(S(=O)(=O)c3ccccc3)CC2)cc1	-5%
C=CCn1cc(-c2cccc(C(F)(F)F)c2)cc(C#N)c1=O	19%
COc1ccc(CNC(=O)C2CCN(S(=O)(=O)Cc3ccccc3)CC2)cc1	17%
Cc1ccc(S(=O)(=O)NC(=O)NN2C[C@H]3CCC[C@@H]3C2)cc1	6%
Cc1cc(C)nc(NCc2ccc(Cl)cc2)n1	-12%
CC(c1cc2ccccc2s1)N(O)C(N)=O (stereo not drawn)	-6%
CCc1nnc(NC(=O)CSc2nnc3c4ccccc4n(C)c3n2)s1	2%
CC(NC(=O)COC(=O)c1ccc(N(C)C)cc1)c1ccccc1 (stereo not drawn)	-8%
CCOC(=O)C(NC(=O)NC1CCCCC1)(c1ccccc1)C(F)(F)F (stereo not drawn)	-1%
O=C(COC(=O)/C=C/c1cccc(Br)c1)NC1CCCC1	11%
CCOP(=O)(c1ccccc1)c1nc(-c2ccccc2Cl)oc1N1CCCCC1 (stereo not drawn)	3%
CCN(CC)c1ccc(C2C(C(N)=O)=C(C)Nc3nc(SCc4ccccc4Cl)nn32)cc1 (stereo not drawn)	-1%
CCn1c(SCc2ccc(Cl)cc2)nnc1-c1ccccc1	-19%
CCc1noc(C)c1C(=O)N1CCCC(C(=O)c2ccc(OC)c(F)c2)C1 (stereo not drawn)	1%
COc1ccc(C2C=C3CNS(=O)(=O)C3CC2OC(=O)c2cccc(C)c2)cc1 (stereo not drawn)	-17%
COc1ccc2c(c1OC)C(=O)N(c1ccc(C)c(C)c1)C2=O	-9%

3 compounds already listed, arranged by the number in VDR inh, highest first:
structure	VDR inh
O=[N+]([O-])c1ccc(NC(=S)N2CCN(S(=O)(=O)c3ccccc3)CC2)cc1	-5%
Cc1nc(=O)c(-c2ccccc2)c(C)n1CCCCCC(=O)O	-6%
CCn1c(SCc2ccc(Cl)cc2)nnc1-c1ccccc1	-19%

Other compounds.
SMILES	VDR inh
O=C(O)c1cc(-c2ccc3ccccc3n2)nc2ccccc12	-3%
Fc1ccc(-c2csc(/C=C/c3ccc4c(c3)OCO4)n2)cc1	-9%
Cn1ccnc1Sc1ccc(/C=N/NC(=O)c2ccccc2[N+](=O)[O-])cc1[N+](=O)[O-]	11%
CC(C)(C(=O)O)n1cncn1	13%
COc1ccc(Br)c2c1C(=O)CC2	0%
CC(=O)N1CCCc2cc(S(=O)(=O)N3CCN(C4CCCCC4)CC3)ccc21	-6%
Cn1ccnc1C(=O)C1CCCN(Cc2cn[nH]c2-c2ccc(-c3ccccc3)cc2)C1 (stereo not drawn)	3%
COc1ccc(CCN2CCCn3c2nc2c3c(=O)n(C)c(=O)n2C)cc1OC	14%
CC1(C)CC(=O)C2=C(C1)OC(N)=C(C#N)C2c1cn(-c2ccccc2)nc1-c1ccc(F)cc1 (stereo not drawn)	36%[activator]
O=C(O)C(Cc1c[nH]c2ccccc12)N1C(=O)C2C3c4ccccc4C(c4ccccc43)C2C1=O (stereo not drawn)	6%
CC1=C(C(=O)O)CC(S(=O)(=O)O)C1(C)C (stereo not drawn)	-15%
COc1ccccc1N(C)S(=O)(=O)c1ccc(Cl)c(C(=O)OCc2c(C)noc2C)c1	-5%
CCOC(=O)c1cccc(NC(=O)NCCc2c(C)nn(C)c2C)c1	10%
Cc1nn(Cc2ccccc2Cl)c(C)c1C(=O)NC1=NCCS1	-4%
O=C(O)C[C@H]1c2ccc(C(F)(F)F)cc2S(=O)(=O)N1Cc1ccccc1	-14%
CCC(C)NC(=O)c1cc(-c2cccc(OC)c2)on1 (stereo not drawn)	-2%
Cc1cc(C)cc(NC(=S)N2C3CCCC2CC(NC(=O)C2CC2)C3)c1 (stereo not drawn)	-14%
CCC(=O)NCc1c(C)c(C)n(Cc2ccccc2)c1-n1cccc1	0%
Cc1ccc(NC(=O)COc2coc(CN3CCc4ccccc4C3)cc2=O)cc1Cl	-12%
CCOC(=O)N1CCN(C(=O)CN(c2cccc(C(F)(F)F)c2)S(=O)(=O)c2ccccc2)CC1	-8%

Fetched by structure from above:
SMILES	VDR inh
O=C(O)C(Cc1c[nH]c2ccccc12)N1C(=O)C2C3c4ccccc4C(c4ccccc43)C2C1=O (stereo not drawn)	6%
Fc1ccc(-c2csc(/C=C/c3ccc4c(c3)OCO4)n2)cc1	-9%

Further compounds follow.
SMILES	VDR inh
CC(C)Oc1ccc(OCCCN2CCCCCC2)cc1	-13%
CCOC(=O)CCNC(=O)N1CCCC(C(=O)c2cc(C)c(OC)c(C)c2)C1 (stereo not drawn)	-17%
COc1ccccc1C(=O)n1nc(-c2ccco2)nc1NCc1ccc(Cl)cc1	6%
CC(=O)Nc1nonc1-c1nnc(SCC(=O)Nc2ccc(C)cc2C)n1C	1%
CC(C)Nc1nc2n(c(=O)n1)CCN2C(C)C	5%
COc1ccc(Cl)cc1N1C(=O)CN(Cc2cc(OC)c(OC)c(OC)c2)C1=S	?
COc1ccc(CN2CCNC(=O)C2CC(=O)NCCCn2cccn2)cc1C (stereo not drawn)	-13%
CCSc1nc(O)cc(=O)[nH]1	-6%
COc1cc2c(cc1OC)C(C)N(C(C)=O)CC2 (stereo not drawn)	-15%
COc1ccc(C(CNC(=O)C2CC2)N(C)C)cc1 (stereo not drawn)	-3%
O=C(O)c1ccc(N(c2ccccc2)c2ccccc2)cc1	7%
Cc1cc(NC(=O)COc2nnc(-c3ccccc3)c3ccccc23)no1	-4%
Cc1nn(Cc2ccccc2)c(C)c1C(=O)NCCN1C(=O)S/C(=C\c2ccc(F)cc2)C1=O	-11%
COc1cccc(N2CCN(C(=O)CCS(=O)(=O)c3ccc4c(c3)CC(=O)N4C)CC2)c1	1%
Nc1ncnc(Oc2cccc3cccnc23)c1[N+](=O)[O-]	19%
O=S(=O)(NCCc1ccc(Cl)cc1)c1cccc2cccnc12	-18%
CCOC(=O)COc1ccc(Br)cc1C1NC(=O)NC(C)=C1C(=O)NCc1ccccc1 (stereo not drawn)	3%
COc1ccc(-n2ncc(C(=O)NCCN3CCOCC3)c2C2CCN(C(=O)OC(C)(C)C)CC2)cc1	7%
Cc1cccc(S(=O)(=O)Nc2nc3ccccc3nc2Nc2cccc(C(=O)O)c2)c1	2%
COc1ccc(C)cc1NC(=O)c1c(C)oc2ncn(CC(C)C)c(=O)c12	11%

Three entries out of the list, sorted by molar mass, largest number first.
SMILES	VDR inh
COc1ccc(CN2CCNC(=O)C2CC(=O)NCCCn2cccn2)cc1C (stereo not drawn)	-13%
COc1cc2c(cc1OC)C(C)N(C(C)=O)CC2 (stereo not drawn)	-15%
CCSc1nc(O)cc(=O)[nH]1	-6%

(further entries)
SMILES	VDR inh
COc1ccc(N(CC(=O)NN=C2CCN(C)CC2)S(=O)(=O)c2ccc(NC(C)=O)cc2)cc1	24%
CC(C)OC(=O)CN1CCN(S(=O)(=O)c2cc(Cl)ccc2Cl)CC1	0%
Cc1cccc(/C=N/NC(=O)Cc2cccs2)c1	-17%
CCN1C(=O)[C@H]2[C@@H](c3ccc(Cl)cc3)N3C(=O)CN(CCOC)C(=O)[C@@]3(C)[C@H]2C1=O	0%
Cc1ccc(-n2nnnc2SCC(=O)NCC2CCCO2)cc1C (stereo not drawn)	-6%
Nc1nc(N)nc(-c2ccccc2O)n1	10%
O=C(NCc1ccccc1)C(c1ccncc1)N(C(=O)c1csnn1)c1cccc(F)c1 (stereo not drawn)	-9%
COC(=O)c1ccc(CSc2nnc3n(Cc4ccccc4OC)c(=O)c4ccccc4n23)o1	2%
O=C(O)CCCN=CC1=C(O)CNC1=O	?
N#CC(C(=O)NC1CCCCC1)=C1CCCCC1	-2%
COc1cc(CN2CCCCCC2)cc(OC)c1OC	5%
O=S(=O)(NCC(c1cccnc1)N1CCc2ccccc2C1)c1ccccc1 (stereo not drawn)	0%
Cc1ccc(COCCN2CCN(S(=O)(=O)c3ccccc3)CCC2=O)cc1	-1%
O=C(/C=C/c1ccccc1)c1cccs1	11µM*
COc1ccc(C2CC(c3ccccc3)=NN2C(=O)COC(=O)C2CC2)cc1 (stereo not drawn)	-11%
CCC(C(=O)NCCc1c[nH]c2ccc(C)cc12)c1ccccc1 (stereo not drawn)	-4%
O=C(C1CCN(S(=O)(=O)c2cccc3nonc23)CC1)N1CCN(c2ccccc2F)CC1	9%
CCc1ccc(C(=O)COC(=O)CNC(=O)Cc2ccccc2)cc1	12%
CCOC(=O)c1c(C)c(C(=O)NCc2ccco2)c(C)n1Cc1ccccc1	?
CC(=O)C1C(c2cccc(Oc3ccccc3)c2)NC(=O)NC1(O)C(F)(F)F (stereo not drawn)	-14%
O=C(Cn1nnc(-c2ccccc2NC(=O)C2CC2)n1)NC1CCCCC1	12%
Cc1cccc(C2CC(c3ccccc3)Nc3ncnn32)c1 (stereo not drawn)	-7%
CCOc1ccc(N(C)S(=O)(=O)c2c[nH]c(C(=O)OC)c2)cc1	-25%
COc1ccc(C(C(=O)NC2CCCC2)N(C(=O)c2snc(-c3ccc(F)cc3)c2N)c2ccccc2)cc1 (stereo not drawn)	-3%
CCO[C@@H]1OC(C(=O)NCc2ccccc2)=C[C@H](C)[C@H]1CCCO	-1%
CCC(C(=O)Nc1cc(C)nn1-c1nc(C)cc(C)n1)c1ccccc1 (stereo not drawn)	-4%
COc1ccc(OC)c(NC(=O)C2CCCN(S(=O)(=O)c3cccc4nsnc34)C2)c1 (stereo not drawn)	-20%
O=C(CC1CCCC1)N1CCN(S(=O)(=O)c2ccccc2)CC1	-10%
COc1ccccc1N1CCN(C[C@@H](O)COc2cccc3ccccc23)CC1	2%
S=C(NCc1ccncc1)Nc1ccc(Br)cc1Cl	6%
O=C(Nc1cccc(F)c1)NC1CC2CCCC(C1)N2C1CC1 (stereo not drawn)	-13%
Nc1c(C(=O)N2CCCCC2)sc(=S)n1-c1ccccc1	?
COc1ccc(C(=O)C2CCCN(Cc3ccc4nonc4c3)C2)cc1OC (stereo not drawn)	-6%
CCN(CC)CCNC(=O)c1c(C)n(-c2ccccc2)c2cc(Br)c(OC)cc12	-14%
CC(OC(=O)c1cc2c(ccc3ccccc32)oc1=O)c1nc2ccccc2s1 (stereo not drawn)	-11%
NCC1CCC(C(=O)O)CC1 (stereo not drawn)	0%
COC(=O)c1scc(C)c1NC(=O)c1ccccc1F	4%
NCCSC1CC(=O)N(c2ccc(Cl)c(Cl)c2)C1=O (stereo not drawn)	-3%
Cc1cccc(NC(=O)C23CCC(C)(C2Br)C3(C)C)c1 (stereo not drawn)	-16%
CCCC1C(=O)Nc2ccccc2N1C(=O)c1cccc(C)c1 (stereo not drawn)	-4%

Gathered by group, the compounds so far containing bromine.
SMILES	VDR inh
O=C(COC(=O)/C=C/c1cccc(Br)c1)NC1CCCC1	11%
COc1ccc(Br)c2c1C(=O)CC2	0%
CCOC(=O)COc1ccc(Br)cc1C1NC(=O)NC(C)=C1C(=O)NCc1ccccc1 (stereo not drawn)	3%
S=C(NCc1ccncc1)Nc1ccc(Br)cc1Cl	6%
CCN(CC)CCNC(=O)c1c(C)n(-c2ccccc2)c2cc(Br)c(OC)cc12	-14%
Cc1cccc(NC(=O)C23CCC(C)(C2Br)C3(C)C)c1 (stereo not drawn)	-16%

Remaining list, next part:
SMILES	VDR inh
O=c1cc(N2CCCCC2)c(-c2ccccc2)nn1Cc1ccc(F)cc1	-6%
COc1cccc2cc(C(=O)CS(=O)(=O)c3ccc(C)cc3)c(=O)oc12	-11%
COc1ccc(C2=NS(=O)(=O)N(C)C(C(=O)N3CCC(C)CC3)=C2)cc1	-15%
COc1ccc2nc(C)cc(SCC(=O)N/N=C/c3ccccc3)c2c1	-22%
Cc1nnc(NC(=O)CSc2nnc(CNC(=O)c3ccccc3)o2)s1	-11%
Cc1ccc(-c2c(C(=O)N/N=C/c3ccncc3)nnn2-c2nonc2N)cc1	-7%
CC(C)N1CCc2c(sc(NC(=O)CCc3ccccc3)c2C(N)=O)C1	-13%
CCc1ccc(NC(=O)CN(N=Nc2nonc2C)c2nonc2C)cc1	-14%
COc1ccc(CN2COc3ccc4c(C)cc(=O)oc4c3C2)cc1	8%
Cc1ccc(NC(=O)Nc2ccc3nc(N4CCN(C)CC4)cc(C)c3c2)cc1C	16%
CCN(CC(=O)NCc1cccs1)C(=O)c1ccc(OC)c(S(=O)(=O)N2CCOCC2)c1	-5%
CCN(CC)CCOC(=O)c1ccc(NC(=O)c2cc3cccc(OC)c3oc2=O)cc1	8%
CC(=O)N1c2ccc(S(=O)(=O)NCC3CCC(C(=O)Nc4cc(C)cc(C)c4)CC3)cc2CC1C (stereo not drawn)	8%
COc1cc(CC(=O)OCC(=O)Nc2cc([N+](=O)[O-])ccc2Cl)cc(OC)c1OC	3%
Fc1ccc(-c2ccc(CNCc3ccccn3)o2)cc1	-11%
O=C(C[n+]1ccccc1)N/N=C/c1ccc(C(=O)O)cc1	4%
CCOc1ccccc1NC(=O)Cn1c(=O)n(-c2ccc(C)c(C)c2)c(=O)c2oc3ccccc3c21	7%
COc1ccccc1NS(=O)(=O)c1ccc(Cl)cc1	-6%
Cc1nc(C(C)(C)O)n(-c2ccccc2)n1	12%
Cc1cc(C)cc(NC(=O)CCn2ccnc2)c1	9%
Cc1ccc(SC2=NS(=O)(=O)c3ccccc32)c(C)c1	35µM*
CC(C)N1CC(COc2ccc(Br)cc2)OC1=O (stereo not drawn)	21%
